Screening results: PubChem BioAssay, several laboratories
YopH inh = YopH tyrosine phosphatase inhibitors, primary screen, biochemical, fluorescence Ex485/Em525; YopH tyrosine phosphatase [Yersinia enterocolitica]; inhibition, %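 (about 10 µM by stock and volumes)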; 140,000 tested, 0.16% active; AID 898, 2007;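 active = inhibition of 50% or more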;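 also: controls were vehicle for no effect and minimum signal wells for full effect; inactives centre near -20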
Mtb H37Rv = M. tuberculosis H37Rv growth inhibitors, H37Rv strain (AID 1626); one-dose inhibition, % at 10 µM; IC50 in µM for titrated hits; M. tuberculosis H37Rv growth inhibition; higher % means a stronger effect; 220,000 tested, 0.95% active;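 active = confirmed in a dose series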;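 also: bacteria incubated seven days before Alamar blue readout; 0% = bacteria only wells and 100% = bacteria with antibiotic wells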
Mtb bLac sens = beta-lactam sensitization of Mtb H37Rv, H37Rv | M. tuberculosis H37Rv growth with meropenem, percent inhibition; hits of this screen are not shown here | 330,000 tested, 0.27% active | inhibition, % at 25 µM;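 active = about 74% or more and at least 40 points above the plate without the antibiotic, then above 30% in a dose series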;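 also: growth measured after seven days incubation then overnight dye step; 0% = bacteria only wells and 100% = bacteria with antibiotic; twin plates without the antibiotic show which effects depend on it; some results filed as inactive read as strong as hits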
RecA intein inh = Mtb RecA intein splicing inhibitors, primary screen, biochemical, fluorescence, HTS; cell-free RecA intein splicing; inhibition, %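 (about 9 µM by stock and volumes)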; Protein RecA (Mycobacterium tuberculosis (strain ATCC 25618 / H37Rv)), P9WHJ3; 290,000 tested, 0.75% active; in the data active = inhibition above about 30%;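 also: 0% = vehicle wells and 100% = reference inhibitor control wells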
Target sequence (P9WHJ3 whole entry, looked up): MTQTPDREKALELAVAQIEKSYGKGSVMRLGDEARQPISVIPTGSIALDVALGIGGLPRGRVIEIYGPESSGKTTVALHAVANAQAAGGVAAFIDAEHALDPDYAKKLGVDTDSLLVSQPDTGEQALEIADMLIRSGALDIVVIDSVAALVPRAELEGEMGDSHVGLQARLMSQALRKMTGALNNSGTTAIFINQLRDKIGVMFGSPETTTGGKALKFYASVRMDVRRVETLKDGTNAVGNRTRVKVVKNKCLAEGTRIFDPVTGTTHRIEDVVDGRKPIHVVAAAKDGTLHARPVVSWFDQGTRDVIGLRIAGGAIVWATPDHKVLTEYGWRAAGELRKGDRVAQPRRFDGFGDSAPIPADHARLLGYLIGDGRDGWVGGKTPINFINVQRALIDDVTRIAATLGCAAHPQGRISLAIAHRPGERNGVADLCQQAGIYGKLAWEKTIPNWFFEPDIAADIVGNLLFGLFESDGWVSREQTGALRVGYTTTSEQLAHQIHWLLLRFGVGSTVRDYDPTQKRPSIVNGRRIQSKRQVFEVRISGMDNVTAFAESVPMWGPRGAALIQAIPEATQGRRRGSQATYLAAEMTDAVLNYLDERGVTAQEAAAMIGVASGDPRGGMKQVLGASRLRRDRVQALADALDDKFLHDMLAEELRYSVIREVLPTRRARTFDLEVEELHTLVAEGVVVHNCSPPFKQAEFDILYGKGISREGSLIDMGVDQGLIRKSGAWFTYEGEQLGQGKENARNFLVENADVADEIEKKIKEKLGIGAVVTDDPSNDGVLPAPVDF
Arbovirus inh = antivirals against arbovirus infection, primary screen, cell-based, full library, 10K replicate subset | arbovirus infection cell-based antiviral screen | AID 1251, 2008 | 200,000 tested, 0.37% active | inhibition, % at 10 µM;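 active = inhibition from about 30%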;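 also: bluetongue infection of BSR cells; cell survival read as ATP light after 72 h; 0% = infected wells without compound and 100% = uninfected wells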
Arbovirus inh repeat = further read-out of Arbovirus inh, marked with its call; inhibition, %; measured here: 10K subset replicate screen; many hits read low in the repeat;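 first of two repeat runs on a subset; 0% = infected and 100% = uninfected wells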
* = called active by the depositor; i = inactive; x = no result given. These rows are one share of the data, so the mix of outcomes need not match the whole.

SMILES	YopH inh	Mtb H37Rv	Mtb bLac sens	RecA intein inh	Arbovirus inh	others
COc1ccccc1N1CSC2=C(C#N)C(c3ccc(SC)cc3)CC(=O)N2C1 (centres undefined)	-5.3	-0.5%	-2.8	6.2	9.9	Arbovirus inh repeat=6.1
Cc1cc(N/C(=N/S(=O)(=O)c2cc(F)ccc2F)c2ccccc2)n(-c2ccccc2)n1	x	-5.0%	-1.5	-3.4	-10.8
C=CCNC(=O)c1ccc2c(c1)nnn2C	-45.9	0.3%	-2.6	0.1	6.3	Arbovirus inh repeat=2.3
S=C(N/N=C/c1ccccc1Cl)Nc1cccc(Cl)c1Cl	x	0.8%	66.1	5.3	x
CCOC(=O)N1CCN(CC(O)COC(CC)c2ccccc2)CC1 (centres undefined)	-34.4	-0.8%	2.9	0.2	1.7
Cc1ccc(S(=O)(=O)Nc2cc(C(=O)NCCN3CCCC3)ccc2N2CCCCC2)cc1	-28.8	0.1%	-16.2	1.0	-10.5
CCN(C(=O)c1cc(S(=O)(=O)N2CCCCC2)c[nH]1)c1ccc(OC)cc1	x	x	-2.6	-0.4	x
CCOc1ccc(NC(=S)NC(=O)/C=C/c2ccc(OC)c(OC)c2)c([N+](=O)[O-])c1	7.0	-6.8%	3.4	-1.3	15.2
COc1cccc(N2CC(C)Cn3c2nc2c3c(=O)[nH]c(=O)n2C)c1 (centres undefined)	x	x	-3.8	-4.3	x
COc1cccc(OC)c1CN(C)C(=O)c1cnccc1C(F)(F)F	x	-17.5%	-2.7	0.5	x
Cc1cc(NC(=O)COC(=O)c2cccc(O)c2)no1	x	-7.4%	-1.0	-1.2	-0.8
CC(C)N(c1ccccc1)c1ccc(NC(=O)C2CCCO2)cc1 (centres undefined)	-33.0	-0.2%	2.4	4.7	4.7
COC(=O)c1sccc1NC(=S)N1CCN(c2cc(C)ccc2C)CC1	-37.0	2.5%	8.5	5.4	20.5
Cc1ccccc1/C=C/c1cc[n+](C)cc1	x	-7.4%	-3.2	-4.5	6.2
COc1ccc(OC)c(S(=O)(=O)N2CCC(C(=O)Nc3ccc(C)c(C)c3)CC2)c1	-29.4	-6.0%	0.1	-1.9	-16.5

Four entries out of the list, arranged by heavy-atom count, highest first:
SMILES	YopH inh	Mtb H37Rv	Mtb bLac sens	RecA intein inh	Arbovirus inh	others
CCN(C(=O)c1cc(S(=O)(=O)N2CCCCC2)c[nH]1)c1ccc(OC)cc1	x	x	-2.6	-0.4	x
COc1cccc(N2CC(C)Cn3c2nc2c3c(=O)[nH]c(=O)n2C)c1 (centres undefined)	x	x	-3.8	-4.3	x
CC(C)N(c1ccccc1)c1ccc(NC(=O)C2CCCO2)cc1 (centres undefined)	-33.0	-0.2%	2.4	4.7	4.7
C=CCNC(=O)c1ccc2c(c1)nnn2C	-45.9	0.3%	-2.6	0.1	6.3	Arbovirus inh repeat=2.3

Of the compounds above, two contain fluorine.
SMILES	YopH inh	Mtb H37Rv	Mtb bLac sens	RecA intein inh	Arbovirus inh	others
Cc1cc(N/C(=N/S(=O)(=O)c2cc(F)ccc2F)c2ccccc2)n(-c2ccccc2)n1	x	-5.0%	-1.5	-3.4	-10.8
COc1cccc(OC)c1CN(C)C(=O)c1cnccc1C(F)(F)F	x	-17.5%	-2.7	0.5	x

Later entries
SMILES	YopH inh	Mtb H37Rv	Mtb bLac sens	RecA intein inh	Arbovirus inh	others
COc1cc(CC(NC(C)=O)C(=O)NC2CCN(c3nc(C)cc(C)c3C#N)CC2)cc(OC)c1 (centres undefined)	-29.9	x	-2.0	-2.1	0.5
CC(C)Cc1nnc(NC(=O)CC(C)c2ccccc2)s1 (centres undefined)	x	x	-0.7	-2.1	x
Cc1ccc2c(c1)C1CN(C)CCC1N2C(=O)c1cccs1 (centres undefined)	x	-7.8%	-1.8	1.3	x
CC1CN(C(=O)C(C)N2CCN(c3cccc(Cl)c3)CC2)CC(C)O1 (centres undefined)	x	-2.6%	-8.2	0.3	10.3
CCO/C=C1/C(=O)N(CC)c2ccccc21	2.0	x	-3.5	-1.2	2.5
CN(C)S(=O)(=O)c1ccc(Cl)c(NC(=O)COC(=O)/C=C/c2cnc3ccccc3n2)c1	x	-2.6%	-1.8	-5.9	x
Oc1ccc(/C=N/N2CCCCC2)c(O)c1	x	x	9.7	-7.0	x
O=C(Nc1ccccn1)c1ccc(Cl)c(S(=O)(=O)N2CCOCC2)c1	x	x	-8.5	2.2	x
CC(=O)NCC(=O)OCC(=O)c1ccc(C)c(C)c1	-12.3	-8.6%	-4.5	1.0	-0.6	Arbovirus inh repeat=2.5
CCOC(=O)c1c(NC(=O)C2=C(C)NC(=S)NC2c2ccc(C)cc2)sc(C)c1C (centres undefined)	-20.1	35.5%	47.6	-1.8	1.0
CCc1ccc2c(CN(C)Cc3ccccc3OC)cc(=O)oc2c1	x	x	7.8	5.6	x
C=CCn1c(O)c(/C(C)=N/NC(=S)Nc2ccccc2)c(=O)[nH]c1=O	x	x	-3.1	1.6	x
O=C(NCC1CCCO1)C1CCC(=O)N1Cc1ccccc1Cl (centres undefined)	-24.6	-1.0%	-1.5	0.9	6.5
CC(=O)c1ccc(NC(=O)CSc2ccc(-c3ccc(-n4cccn4)cc3)nn2)cc1	x	x	-4.1	-1.2	x
COCCn1c(Cc2cccn2C)nnc1SCC(=O)NCc1ccc2c(c1)OCO2	x	5.5%	6.0	-2.8	2.1

The last 6 entries of the section above are carried over, then new ones follow:
SMILES	YopH inh	Mtb H37Rv	Mtb bLac sens	RecA intein inh	Arbovirus inh	others
CCOC(=O)c1c(NC(=O)C2=C(C)NC(=S)NC2c2ccc(C)cc2)sc(C)c1C (centres undefined)	-20.1	35.5%	47.6	-1.8	1.0
CCc1ccc2c(CN(C)Cc3ccccc3OC)cc(=O)oc2c1	x	x	7.8	5.6	x
C=CCn1c(O)c(/C(C)=N/NC(=S)Nc2ccccc2)c(=O)[nH]c1=O	x	x	-3.1	1.6	x
O=C(NCC1CCCO1)C1CCC(=O)N1Cc1ccccc1Cl (centres undefined)	-24.6	-1.0%	-1.5	0.9	6.5
CC(=O)c1ccc(NC(=O)CSc2ccc(-c3ccc(-n4cccn4)cc3)nn2)cc1	x	x	-4.1	-1.2	x
COCCn1c(Cc2cccn2C)nnc1SCC(=O)NCc1ccc2c(c1)OCO2	x	5.5%	6.0	-2.8	2.1
CSc1ccccc1NC(=O)c1cc(CC(C)C)on1	-1.1	64.3%	97.3	1.5	0.0
Cc1ccc(NC2c3ncccc3C(=O)N2c2ccccc2C)cc1C (centres undefined)	-31.3	6.5%	58.4	25.7	19.9
Oc1ccccc1/C=N/n1cnn(Cc2ccccc2Cl)c1=S	-20.0	0.3%	-6.8	x	-3.7
c1ccc(-c2onc(-c3ccco3)c2-c2ccc3c(c2)OCO3)cc1	x	x	-10.5	-0.4	x
CC(C)c1c(O)nc(SCC(=O)N2CCOCC2)[nH]c1=O	-28.1	-6.9%	-0.4	0.2	5.8
CC(=O)NC(Cc1ccccc1)C(=O)NC1CCN(C(=O)NC2CCCCC2)CC1 (centres undefined)	-19.6	-10.2%	2.8	7.3	-0.4
CC1(C(=O)NC2CCCCCCC2)CCC(=O)N1CCN1CCOCC1 (centres undefined)	-51.0	-6.4%	6.7	0.4	0.0
CCOC(=O)c1cnc2c(C)cccc2c1NCCc1ccc(OC)c(OC)c1	-34.0	14.0%	24.8	3.7	-0.2
COc1ccc(CCNC(=O)COc2ccccc2[N+](=O)[O-])cc1OC	x	-4.0%	-7.5	x	x
COc1ccc(CC(=O)NC2CCN(CC(=O)Nc3ccc4c(c3)OCCO4)CC2)cc1OC	-12.6	-3.2%	9.0	1.0	2.4
CC(C)N(CCc1ccncc1)C(=S)Nc1ccc(F)c(Cl)c1	x	-2.6%	-6.7	1.1	17.5
CCc1cccc(OCC2Cn3c(nc4c3c(=O)[nH]c(=O)n4C)O2)c1 (centres undefined)	x	x	-1.3	-2.3	x
Cc1ccccc1C(=O)N/N=C/c1cccc2ccccc12	x	x	5.7	1.7	x
CCN(CCn1cccn1)C(=O)CCc1nnc(Cc2c[nH]c3ccccc23)o1	x	-2.6%	5.8	-1.3	-0.4
O=C1C=C(c2ccccc2)C[C@H](c2cccs2)[C@H]1n1cnc([N+](=O)[O-])c1	-19.9	1.4%	-7.1	4.1	4.6
CCCN(CCC)CCCNC(=O)c1cc2c(=O)n(CC)c3ccccc3c2s1	x	x	-0.4	2.0	x
CC(C)CNS(=O)(=O)c1ccc(CC(C)C)cc1	x	10.5%	3.1	3.7	1.1
O=C(COC(=O)c1ccc(NS(=O)(=O)c2cccs2)cc1)NCc1ccco1	x	4.8%	1.4	-4.7	x
Cc1cc(C(=O)OCC(=O)Nc2ccc(F)cc2F)c(C)o1	-43.0	8.1%	3.6	0.3	-2.5
CN(C)c1cc(-c2ccc(Cl)c(Cl)c2)oc(=O)c1Cl	x	-6.4%	-1.9	0.7	x
CC1(C)C(=O)Nc2ccccc2N1C(=O)CSc1nc(-c2ccccc2)cs1	-38.9	-3.9%	-0.1	0.8	-9.4
CCOC(=O)/C(=N/Nc1ccccc1OC)N1CCCc2ccccc21	x	3.1%	0.4	x	x
CC(=O)Nc1ccc(-c2nnc(SCC(=O)Nc3ccc4c(c3)oc3ccccc34)n2C)cc1	-0.4	32.7%	97.5	-1.2	2.3
CN(CC(=O)NCc1cccnc1)S(=O)(=O)c1ccccc1	x	-1.9%	-1.9	1.1	x
COc1cccc(OC)c1C(=O)NNS(=O)(=O)c1ccc2ccccc2c1	x	x	-1.5	-1.2	x
Cc1ccc2nc(N/N=C/c3ccccc3F)nc(-c3ccccc3)c2c1	-3.3	22.5%	32.1	-0.7	-7.0
Cc1c(Cl)c(=O)n2c(=O)c(Cl)c(C)n12	x	3.7%	1.6	i	1.1
Cc1ccc(C)c(N2CN(CCC3=CCCCC3)CNC2=S)c1	x	11.4%	-10.4	2.8	x
O=C(COC(=O)Cn1cnc2ccccc21)Nc1ccc2c(c1)C(=O)c1ccccc1C2=O	-1.4	40.1%	30.8	5.4	-26.8
COc1cccc(C(=O)CC(=O)C(=O)Nc2cccc([N+](=O)[O-])c2C)c1	x	x	2.5	5.7	x
N#C/C(=C\Nc1ccc(Cl)cn1)S(=O)(=O)c1ccccc1	x	-3.1%	-7.3	1.1	x
COc1ccc(OC)c(NC(=O)CSc2ccc(-c3ccco3)nn2)c1	x	x	-9.6	8.6	x
COc1ccc(C2C(CN3CCOCC3)C(=O)N2c2ccccc2)cc1 (centres undefined)	x	-5.8%	-2.0	12.8	-6.5
O=C(COc1ccccc1O)Nc1ccccc1Cl	21.4	-7.7%	-6.9	-2.1	7.9
Cc1ccc(-c2cc(C(F)F)n3ncc(C(=O)Nc4cn(C)nc4C)c3n2)cc1	x	-1.9%	-7.5	2.9	-0.4
COc1ccccc1C(=O)Nc1ccc(N2CCN(Cc3ccccc3)CC2)cc1	-16.2	40.9%	94.7	-1.0	9.9
CC(C)CSc1nnc2c(n1)[nH]c1ccccc12	-0.8	-9.7%	-1.2	x	2.8
Cn1c(=O)c2c(nc3n2CC(COc2ccccc2)O3)n(C)c1=O (centres undefined)	x	x	-5.3	-0.8	x
O=C(c1cccs1)N1CCN(Cc2ccncc2)CC1	-53.6	-5.1%	-4.1	-1.7	6.8
Nc1ccc2nc(SCC(=O)Nc3ccc(N4CCOCC4)c(Cl)c3)sc2c1	-8.1	1.8%	13.8	4.5	-23.5
COc1ccc2c(C)cc(SCC(=O)c3ccc4c(c3)OCO4)nc2c1	24.6	-1.2%	-2.3	1.8	0.7
O=C1CC2(CCN(C(=O)c3cccc(Br)c3)CC2)Oc2ccccc21	x	x	-14.0	1.3	x
CC1c2[nH]c3ccccc3c2CCN1S(C)(=O)=O (centres undefined)	-2.7	2.0%	6.9	0.0	-0.4	Arbovirus inh repeat=8.2
O=C(Cc1cccs1)N(c1ccc(F)cc1)C1(C(=O)NC2CCCCC2)CCCC1	-9.9	7.4%	0.5	8.1	-11.4
CCOc1ccccc1N(CC(=O)Nc1ccc2c(c1)OCO2)S(C)(=O)=O	-52.2	-4.8%	-13.4	-2.4	-1.8	Arbovirus inh repeat=2.1
O=C(Nc1c(O)c2ccccc2[nH]c1=O)c1ccco1	x	12.4%	-1.7	-2.6	x
